KCNQ2 enhance – KCNQ2 (rat) channel potentiation; B-score at 10 µM; O88943; CHO-K1 KCNQ2, FluxOR thallium flux fluorescence; active compounds read high; hit rate 0.54% among 310,000;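 active means fluorescence ratio B-score at least 3 SD of library B-scores, with initial fluorescence B-score within 3 SD, cut at about 5.3 in these data; same plate scores as AID 2156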;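 further: B-score of peak minus minimum over baseline fluorescence ratio after K+ and Tl+ stimulus; positive B-score means potentiation of KCNQ2 with more thallium influx and brighter signal; only the inactives scoring about 0 or higher are listed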
Target sequence (O88943 whole entry, looked up): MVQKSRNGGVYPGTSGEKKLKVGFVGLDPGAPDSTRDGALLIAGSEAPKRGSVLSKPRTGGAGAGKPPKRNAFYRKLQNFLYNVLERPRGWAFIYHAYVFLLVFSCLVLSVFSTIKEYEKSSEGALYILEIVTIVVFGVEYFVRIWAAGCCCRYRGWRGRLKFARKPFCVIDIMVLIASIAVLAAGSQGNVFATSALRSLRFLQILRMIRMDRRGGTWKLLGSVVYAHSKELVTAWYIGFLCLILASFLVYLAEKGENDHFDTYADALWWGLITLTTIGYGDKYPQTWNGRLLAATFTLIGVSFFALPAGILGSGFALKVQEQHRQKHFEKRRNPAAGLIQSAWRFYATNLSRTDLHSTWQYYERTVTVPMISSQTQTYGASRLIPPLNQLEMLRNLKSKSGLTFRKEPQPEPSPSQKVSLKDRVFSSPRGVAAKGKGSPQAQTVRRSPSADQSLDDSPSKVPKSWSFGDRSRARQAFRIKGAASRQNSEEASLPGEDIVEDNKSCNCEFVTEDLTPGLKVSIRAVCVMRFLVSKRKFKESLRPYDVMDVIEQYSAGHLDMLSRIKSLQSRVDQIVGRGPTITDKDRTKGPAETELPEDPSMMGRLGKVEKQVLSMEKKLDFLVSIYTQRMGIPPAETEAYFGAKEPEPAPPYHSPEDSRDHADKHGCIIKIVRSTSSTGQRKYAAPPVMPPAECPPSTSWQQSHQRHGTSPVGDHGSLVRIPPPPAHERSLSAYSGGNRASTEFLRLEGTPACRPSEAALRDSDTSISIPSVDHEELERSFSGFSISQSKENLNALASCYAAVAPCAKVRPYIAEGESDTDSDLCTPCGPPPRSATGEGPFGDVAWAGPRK
KCNQ2 enhance baseline – further read-out of KCNQ2 enhance, marked with its call; B-score; compound at 10 µM; measured here: initial fluorescence intensity artifact check;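 brightness before thallium and not channel activity; 0 = typical well and far values either way flag optical interference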
Active calls of the source: *.

Sample of the layout:
SMILES | KCNQ2 enhance | KCNQ2 enhance baseline
Cc1cc(N2CCN(C(=O)c3ccco3)CC2)n2nc(C)c(-c3ccccc3)c2n1 | 0.06 | 2.2
Cc1ccc(S(=O)(=O)NC(C(=O)Oc2cc3oc(=O)cc(C)c3cc2Cl)C(C)C)cc1 (stereo not given) | 1.1 | -1.3
[N-]=[N+]=NCC/C=C\C1NS(=O)(=O)OCC1O (stereo not given) | 0.01 | -0.71
CCn1c(=O)c2sccc2n(CC(=O)NCCC2=CCCCC2)c1=O | 0.35 | -0.41
CC(C)(C)C1(c2ccccc2)NC(=O)N(CC(=O)N2CCOCC2)C1=O (stereo not given) | 0.51 | -0.9
Cn1c(CCCOc2ccc(Cl)cc2Cl)nnc1SCC(=O)Nc1ccc(F)c(Cl)c1 | 0.44 | -1.2
CN(CCO)C1=NS(=O)(=O)c2cc([N+](=O)[O-])ccc21 | 0.89 | -2.4

The listing, from the first entry:
SMILES | KCNQ2 enhance | KCNQ2 enhance baseline
Cc1cc(N2CCN(C(=O)c3ccco3)CC2)n2nc(C)c(-c3ccccc3)c2n1 | 0.06 | 2.2
Cc1ccc(S(=O)(=O)NC(C(=O)Oc2cc3oc(=O)cc(C)c3cc2Cl)C(C)C)cc1 (stereo not given) | 1.1 | -1.3
[N-]=[N+]=NCC/C=C\C1NS(=O)(=O)OCC1O (stereo not given) | 0.01 | -0.71
CCn1c(=O)c2sccc2n(CC(=O)NCCC2=CCCCC2)c1=O | 0.35 | -0.41
CC(C)(C)C1(c2ccccc2)NC(=O)N(CC(=O)N2CCOCC2)C1=O (stereo not given) | 0.51 | -0.9
Cn1c(CCCOc2ccc(Cl)cc2Cl)nnc1SCC(=O)Nc1ccc(F)c(Cl)c1 | 0.44 | -1.2
CN(CCO)C1=NS(=O)(=O)c2cc([N+](=O)[O-])ccc21 | 0.89 | -2.4
COCCNS(=O)(=O)c1ccccc1 | 0.08 | -1.4
COc1cc2cccc(OC)c(=O)c2c(O)c1OC | 0.08 | -0.72
CC(=O)Nc1ccc(S(=O)(=O)NCC2CCC(C(=O)NCc3ccccc3)CC2)cc1 (stereo not given) | 0.61 | 0.59
O=C(COC(=O)c1ccc(Sc2ccccc2)c([N+](=O)[O-])c1)NC1CCS(=O)(=O)C1 (stereo not given) | 0.26 | 1.5
CCOc1ccc(NC(=O)CC2C(=O)N(c3ccc(OC)cc3)C(=O)N2CCc2ccc(OC)c(OC)c2)cc1 (stereo not given) | 0.19 | -0.07
Nc1nc(Nc2cccc(F)c2)nc2ccccc12 | 3.6 | -0.79
COc1ccccc1CNc1ncc(-c2ccc(F)cc2)n1C | 0.13 | -2
Cc1cc(C)nc(/N=C(\N)C2=C(O)CC(C)(C)CC2=O)n1 | 0.21 | 0.66
CCc1cc2cc3c(cc2nc1SCC(=O)OC(C)C)OCO3 | 0.02 | -0.54
COc1ccc(Nc2nnc(-c3ccncc3)s2)cc1Cl | 0.14 | 1.2
O=C(NC1CCCN(Cc2ccc(Cl)cc2)C1)c1ccnc(Cl)c1 (stereo not given) | 0.47 | -0.95
O=C(O)c1ccc2c(c1)C(=O)N(C(Cc1ccc(O)cc1)C(=O)O)C2=O (stereo not given) | 0.39 | 0.3
Nc1nc(CCl)nc(Nc2ccc3ccccc3c2)n1 | 4.4 | -0.08
CCCc1nc(SCC(=O)NNC(=O)c2ccc(OC)cc2)c2ccccc2n1 | 0.54 | 0.53
Cc1cccc(C)c1NC(=S)N(c1ccccc1)C(C)C | 0.08 | 0.91
Cc1cc(-c2ccccc2N)n[nH]1 | 0.17 | -1
CCOc1cc(N2CCOCC2)c(OCC)cc1NC(=O)COc1cccc(Cl)c1 | 0.83 | -0.65
Cc1ccc(C)c(OCC(=O)Nc2cccc(C(=O)O)c2)c1C | 1.3 | 1.4
COC(=O)c1cn(Nc2ncc(C(F)(F)F)cc2Cl)c(=O)c2ccccc12 | 0.01 | 0.79
COC(=O)c1[nH]c2cc(OC)ccc2c1NC(=O)CCN1CCN(c2ccccc2)CC1 | 0.53 | 0.84
COc1cc(-c2n[nH]c(=S)n2-c2ccc(C)cc2)cc(OC)c1OC | 0.06 | 1.1
O=C1N(Nc2ccccc2)C(c2ccc(Br)cc2)C12CCCC2 (stereo not given) | 0.95 | -1.2
Cc1ccc(-n2nnnc2SCC(=O)Nc2cc(C)on2)c(C)c1 | 1.1 | 1.2
O=C(COC(=O)/C=C/c1ccc(Cl)cc1Cl)Nc1ccc2c(c1)OCCO2 | 1.3 | -0.04
CCOc1ncccc1C(=O)Oc1ccc2c(c1)OCO2 | 0.56 | -0.05
O=C(Nc1ccc2c(c1)OCO2)O[C@@H]1C[C@H]2CCCC(=O)N3CC[C@@H](C1)[C@@H]23 | 1 | -2.8
O=C(CN1CCOCC1)c1c[nH]c2ccccc12 | 1.5 | 0.22
c1ccc(-c2nccc3ccccc23)cc1 | 0.17 | 0.64
CCn1c(SC)nc(O)c(C(c2ccc(OC)c(O)c2)c2c(O)nc(SC)n(CC)c2=O)c1=O | 0.14 | -0.76
O=C(CN1CCN(C(c2ccccc2)c2ccccc2)CC1)N1N=CCC1c1ccccc1 (stereo not given) | 0.42 | 0.14
CC(C)(C)NC(=O)CN(Cc1cccs1)C(=O)CCC(=O)Nc1nccs1 | 0.18 | 2.2
CC(=O)Nc1sc2c(c1C(N)=O)CCCC2 | 0.03 | 0.39
CCOc1ccc(/C(O)=C2/C(=O)C(=O)N(CCN(CC)CC)C2c2cccs2)cc1 (stereo not given) | 0.1 | -0.76
O=C(NCCCN1CCCC1=O)c1c(O)nc2ccccn2c1=O | 2.7 | 0.46
CNC(=O)COC(=O)/C=C/c1nc2ccccc2s1 | 0.3 | -1
CC(NC(=O)NC(N)=O)(C(F)(F)F)C(F)(F)F | 0.74 | -0.15
Clc1ccc(C(CCN2CCCC2)Cc2ccccc2)cc1 (stereo not given) | 0.46 | 0.11
CCc1nnc2n1N=C(c1cccc([N+](=O)[O-])c1)CS2 | 0.75 | -0.33
CN(C)C(=O)CNC(=O)C1CCCCC1 | 0.01 | 0.07
CSCCC(NC(=O)C1CCC(C)CC1)C(=O)NCc1ccco1 (stereo not given) | 0.48 | 0.06
O=C(Nc1ccccc1C(=O)N1CCCC1)c1ccccc1 | 0.01 | -0.57
Cc1nnc(SCCn2c(N3CCC(Cc4ccccc4)CC3)nc3c2c(=O)[nH]c(=O)n3C)s1 | 1.2 | -0.06
CCOC(=O)c1cnc(SCc2nc(N)nc(Nc3ccc(OC)cc3)n2)nc1N | 0.01 | -0.46
Cc1ccc(C(C)C)c(OCC(=O)NN=C(CCl)CCl)c1 | 0.38 | 0.76
Oc1ccc(/C=N/Nc2cccc3cccnc23)c(O)c1 | 1.4 | -1.6
O=C(O)CCn1nc(-c2ccc(F)cc2)cc(Cc2ccccc2)c1=O | 1.6 | 0.55
O=C1CC(c2ccccc2)n2nc(NC(=O)C3CCCO3)nc2N1 (stereo not given) | 0.24 | 0.61
COc1ccc(C2CC(c3ccccc3)=NN2c2ccc(Cl)c(C(=O)O)c2)cc1 (stereo not given) | 2.4 | 1
Cn1c(=O)n(C)c2cc(N3CCCCC3)c(NC(=O)c3ccccc3)cc21 | 1 | 0.3
O=C(Nc1ccc2c(c1)nc1n2CCSC1)c1ccccc1 | 0.08 | -0.2
CC1CCC2(CC1)NC(=O)N(CC(=O)Nc1cccc(S(=O)(=O)N3CCOCC3)c1)C2=O (stereo not given) | 1.4 | 0.49
CC(C)CC(=O)Nc1c2c(nn1-c1cccc(Cl)c1)CS(=O)C2 (stereo not given) | 0.64 | -2.5
COc1ccc(S(=O)(=O)N2CCOCC2)cc1NC(=O)CSc1n[nH]c(=O)n1C1CC1 | 0.03 | 0.34

Further entries:
SMILES | KCNQ2 enhance | KCNQ2 enhance baseline
CCN1CCN(CCC(=O)Nc2cccc(C)c2)CC1 | 0.51 | 0.14
S=C(NCCNC(=S)Nc1ccccc1)Nc1ccccc1 | 1.4 | -1.3
Cc1ccc(NC(=O)C2CC3CCC2C3)c(Br)c1 (stereo not given) | 14* | -1.6*
Cc1[nH]c2ccccc2c1C(C[N+](=O)[O-])c1cccs1 (stereo not given) | 1.2 | 0.25
CCCn1c2ccccc2c2nnc(SCC(=O)Nc3c(C)n(C)n(-c4ccccc4)c3=O)nc21 | 1.4 | -0.66
O=[N+]([O-])c1ccccc1S(=O)(=O)NC1CCCC1 | 0.87 | 0.96
CCOC(=O)C1CCN(C(=O)COC(=O)COc2ccccc2OC)CC1 | 0.41 | 0.26
CCc1cccc(C)c1NS(=O)(=O)c1c(C)nc2sccn2c1=O | 1.3 | 1.1
O=C(CSc1nc(O)c(C2CCCCC2)c(=O)[nH]1)N1CCOCC1 | 0.59 | -1.2
O=c1cc(CSc2nnc(-c3ccccc3)o2)c2ccccc2[nH]1 | 0.28 | -1
Cc1ccc2nc(C3CCCN(C(=O)NCc4ccccc4)C3)[nH]c2c1 (stereo not given) | 0.04 | 0.23
N#Cc1cccc(CSc2nnc(CCCO)n2-c2ccccc2)c1 | 0.04 | -0.56
O=C(CSc1nc2sc3c(c2c(=O)n1-c1ccccc1)CCCC3)N/N=C/c1ccccc1C(=O)O | 0.58 | -0.23
CCOc1ccccc1N(CC(=O)NCCSc1ccccn1)S(=O)(=O)c1ccccc1 | 2 | -0.15
CN(C)S(=O)(=O)c1ccc(C(=O)OCC(=O)Nc2sc3c(c2C#N)CCCCC3)cc1 | 0.02 | -0.04
CCOC(=O)c1ccccc1NC(=O)C1CC(=O)N(C(C)(C)C)C1 (stereo not given) | 0.97 | -0.89
CC(=O)c1cccc(NC(=O)c2c(C)nn(-c3ccccc3)c2Cl)c1 | 1.2 | -0.44
NC(=O)COC(=O)c1ccc(-c2ccc(O)cc2)cc1 | 0.23 | 0.43
CCC(=O)Nc1c(C)ccc2nsnc12 | 0.52 | 1
COCCCNC(=O)CNC(=O)c1cn(-c2ccccc2OC)c(=O)c2ccccc12 | 1.4 | -1.8
COc1ccc(OC)c(NC(=O)CCN2C(=O)c3ccccc3C2=O)c1 | 0.05 | -0.17
COCCNC(=S)N/N=C(\C)c1ccc2cc(OC)ccc2c1 | 0.53 | -0.36
COc1cc2c(cc1OC)CN(c1ccc(C(N)=O)cc1[N+](=O)[O-])CC2 | 0.68 | -1.3
COc1ccc(-c2c[n+]3c(n2-c2ccc(C)cc2)CCCCC3)cc1 | 1.3 | 0.01
COc1ccccc1N1C[C@@H]2C[C@@H](c3ccco3)N3CCC[C@@]23C1=O | 0.94 | 3.5
CC1Cc2ccccc2N1S(=O)(=O)c1cccc(C(=O)NC2CC2)c1 (stereo not given) | 0.43 | 0.82
CN(C)CCCNC(=O)c1ccccn1 | 0.35 | -1.6
Cc1ccc(-n2ncc3c(SCC(=O)NNC(=O)c4ccco4)ncnc32)cc1 | 4 | -0.46
C#CCNc1nc(CC)nc2c1nnn2Cc1ccccc1F | 0.95 | -0.61
COc1ccc(N2C(=O)C(Cl)=C(N3CCCC(C)C3)C2=O)cc1 (stereo not given) | 0.04 | -2.9
COc1ccc(NC(=O)C2CCCN(S(=O)(=O)c3cccnc3)C2)cc1OC (stereo not given) | 1.1 | -2
O=C(COC(=O)Cc1ccc(Cl)cc1)Nc1ccccc1-c1ccccc1 | 0.33 | 0.97
CCOC(=O)c1c(C)[nH]c(C(=O)CSc2ccc(Cl)cc2)c1C | 0.34 | -1.6
COc1ccc(-n2nnnc2SCC(=O)Nc2ccc3c(c2)OCCO3)cc1OC | 0.51 | -0.39
NS(=O)(=O)c1ccc(CCNC(=O)Cc2ccc(Cl)cc2)cc1 | 0.06 | -0.08
COc1ccc(N(C(=O)c2ccco2)C(C(=O)NC2CCCC2)c2ccc(N(C)C)cc2)cc1 (stereo not given) | 0.09 | 0.01
CC(=O)N/C(N)=N/c1nc2cc(C)ccc2o1 | 0.97 | 0.33
O=C(CCNC(=O)N1CC(=O)Nc2ccccc21)Nc1ccc(Br)cc1F | 1.3 | 0.3
Cc1cccc(C(=O)Nc2cccc(C(=O)N/N=C/c3ccc4c(c3)OCO4)c2)c1 | 0.51 | 0.17
COc1ccc(OC)c(/C=C/c2ccc3cccc(O)c3n2)c1 | 0.39 | 2
COc1ccc(CSc2nnnn2C)cc1[N+](=O)[O-] | 1.8 | 0.09
COc1cc(NC(=O)C(C)Oc2ccccc2)c(C(=O)O)cc1OC (stereo not given) | 0.8 | 0.54
Cc1ccc(NC(=O)NC2CCCCCCC2)cc1 | 0.05 | -0.4
Cc1cc(CN(C)C(=O)c2cc(COc3ccc(F)cc3Cl)on2)n[nH]1 | 0.25 | 0.28
COC(CNC(=O)CN1C(=O)COc2ccc(S(=O)(=O)N3CCOCC3)cc21)OC | 1.1 | -2.1
Cc1cc(C(=O)Oc2cccnc2)ccc1[N+](=O)[O-] | 4.9 | 0.7
O=C(NCCN1CCOCC1)c1cc(Cl)ccc1Cl | 1.1 | 0.06
COc1ccc(CNC(=O)c2cc(SC)ccc2Cl)cc1OC | 0.37 | 1
CC(C)Oc1ccc(C(=O)Nc2nnc(C3=COCCO3)o2)cc1 | 5.3* | -0.85*
O=C(Nc1cccc(S(=O)(=O)N2CCCCC2)c1)c1cnccn1 | 1.3 | -0.67
COc1ccc(NC(=O)c2cc(S(=O)(=O)N3CCCCC3)ccc2OC)cc1 | 0.31 | -0.35

Arranged by length of the SMILES (low to high): some entries from above.
SMILES | KCNQ2 enhance | KCNQ2 enhance baseline
Cc1ccc(NC(=O)NC2CCCCCCC2)cc1 | 0.05 | -0.4
O=C(NCCN1CCOCC1)c1cc(Cl)ccc1Cl | 1.1 | 0.06
COc1ccc(CNC(=O)c2cc(SC)ccc2Cl)cc1OC | 0.37 | 1

Not all compounds are listed, so the mix of outcomes need not match the whole.
